High-throughput results as filed in PubChem.
Ab BasE inh: BasE siderophore enzyme inhibitors, primary screen, biochemical, Acinetobacter baumannii ATCC 17978, fluorescence polarization. 84,000 tested, 0.1% active. purified BasE, fluorescence polarization binding displacement. inhibition, % (no concentration beside the values). AID 485350, 2010;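 active = both replicates above 25% with normal brightness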;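 note: 0% = negative plate control signal and 100% = positive plate control signal; stock transfer was 100 nL into about 30 µL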
LANA-nucl inh: inhibitors of KSHV LANA-nucleosome binding, primary screen, biochemical, fluorescence polarization, FITC-LANA1-23, chicken nucleosomes; 51,000 tested, 0.3% active; z-score (test concentration not listed); FITC-LANA1-23 / chicken nucleosome fluorescence polarization; stronger effect = lower value;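 active = both repeat wells score below -2 in polarization z-score versus plate sample wells, excluding overly bright wells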;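 note: 100 nL library stock added to about 30 µL; numbers are from one replicate; some results filed as inactive read as strong as hits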
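Assay system: FITC-LANA peptide and chicken nucleosomes; input: 240 nM purified chicken nucleosomes (480 nM peptide binding sites), final; also added: 50 nM FITC-LANA1-23 probe; medium: TEN-BT buffer, pH 7.5; doses: pin-transferred compound, 100 nL; times: 10–45 min, room temperature; technique: fluorescence polarization; replication: duplicates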
An asterisk follows results filed as active; nt = not tested or not shown. The list is partial; rates above refer to the full screens.

SMILES	Ab BasE inh	LANA-nucl inh
Cc1ccc(-n2c(C)cc(C(=O)COC(=O)c3ccco3)c2C)cc1	-1.4	nt
CC(C)(O)C(=O)/C=C/c1ccc(Cl)cc1	2.4	-0.38
COC(=O)c1ccc(CSC(=N)N)o1	-0.8	-0.075
CC(C)(CNc1nsc2ccccc12)N1CCOCC1	-0.3	nt
COc1ccc(C2NN=C3c4[nH]c5ccc(C)cc5c4CCC32)cc1 (configuration not stated)	-3.8	nt
CCCn1cnc2c(sc3nc4c(cc32)CSC(C)(C)C4)c1=O	1.1	-1.6
CCn1c(SCC(=O)OCC(=O)Nc2cccc(C(F)(F)F)c2)nnc1-c1ccco1	1.2	nt
CC(C)CC1=NN2C(=N)/C(=C/c3cccs3)C(=O)N=C2S1	-1.0	nt
CC(=O)N1CCN(CC(=O)Nc2ccc3c(c2)OC(F)(F)O3)CC1	0.3	nt
Cc1ccc(Cn2c(=O)c3ccccc3n3c(CCC(=O)O)nnc23)cc1	2.6	1.1
O=C(O)CCCc1nc2ccccc2s1	-0.8	-0.44
CCC(C(=O)Nc1ccc(OC)c(OC)c1)c1ccccc1 (configuration not stated)	0.8	-0.17
COc1ccc(-c2nnn(CC(=O)N(c3ccccc3)C(C(=O)NC3CCCC3)c3ccco3)n2)cc1 (configuration not stated)	0.4	-0.47
CC12CC(NC(=O)N1c1ccccc1)c1ccccc1O2 (configuration not stated)	-0.1	-1.5
Cc1cc(/C=C(\C#N)C(=O)OCc2cc(=O)oc3cc(O)ccc23)c(C)n1CC(C)C	-4.1	nt
N#C/C(=C\c1cccs1)Sc1nc2ccccc2s1	0.9	-0.31
CCn1c(=NC(=O)C2CC2)sc2cc(Br)ccc21	-0.4	0.96
O=C(NO)c1cc(OCC(F)(F)F)ccc1OCC(F)(F)F	nt	-1.2
COc1cc(Cc2cc(OC)c(C)cc2OC)c(OC)cc1C	2.7	nt
CCn1cnc2nc(N)[nH]c(=O)c21	-2.2	0.14
COc1ccc(NC(=O)CN2NS(=O)(=O)c3ccccc3C2=O)cc1Cl	-2.0	nt
CCCc1cc(=O)[nH]c(SCC(=O)c2cc(C)n(-c3nccs3)c2C)n1	0.9	nt
O=c1onc(-c2ccccc2)n1-c1cccc(C(F)(F)F)c1	-3.7	nt
N#Cc1ccc(C(=O)CN2C(=O)S/C(=C\c3ccccc3)C2=O)cc1	0.9	nt
CCN(CC)C(=O)CN1C(=O)C2(OCC(C)(c3ccccc3)CO2)c2ccccc21 (configuration not stated)	-0.1	-0.15
CCOc1cc(NC(=S)NCCCN2CCOCC2)c(OCC)cc1NC(=O)C1CC1	1.7	0.66
Cc1[nH]c2ccccc2c1C(c1ccncc1)N1CCCC1 (configuration not stated)	-1.7	nt
Cc1cc(N2CCOCC2)ccc1/C=c1\sc2nc3ccccc3n2c1=O	-0.5	0.29
O=C(CCN1C(=O)C2CC=CCC2C1=O)Nc1cc(C(F)(F)F)ccc1-n1cncn1 (configuration not stated)	2.3	nt
COC(=O)c1ccc(OCC(O)Cn2cc(/C=N/O)c3ccccc32)cc1 (configuration not stated)	0.9	-0.37
CCOc1ccc(C(C)NC(=O)c2cccnc2OCC)cc1OCC (configuration not stated)	-0.3	nt
COc1ccc(C(=O)OCC(=O)NCc2ccccc2)cc1	0.1	nt
N#Cc1ccc(OCC(=O)NCCCN2CCCC2=O)cc1	0.4	nt
NS(=O)(=O)c1ccc2c(c1)C1C=CCC1C(C1CC=CCC1)N2 (configuration not stated)	4.6	nt
COCCN(Cc1nc2ccccc2c(=O)[nH]1)C(=O)c1cn2c(C)cccc2n1	-1.1	nt
NNC(=O)CNc1nc2ccccc2s1	1.3	nt
S=c1oc2ccc(Cl)cc2n1Cc1ccccc1	0.9	nt
O=C1NC2(O)/C(=N/NC(=O)c3ccccc3O)c3ccccc3C2(O)N1 (configuration not stated)	1.8	-1.2
O=C1c2ccccc2C(=O)N1CCCCSc1nnnn1-c1ccccc1	-3.1	nt
Cc1csc(=O)n1CN1CCN(S(=O)(=O)c2ccccc2C#N)CC1	-1.6	nt
CCOC(=O)N1CCN(C(=O)c2cc(I)ccc2NC(=O)c2ccco2)CC1	0.9	0.19
CCc1ccc2[nH]c(=O)c(CN(Cc3ccccc3)Cc3nnnn3C3CCCC3)cc2c1	-1.1	-0.56
Cc1cc(C)c(C)c(S(=O)(=O)NC2(C#N)CCCCC2)c1C	3.1	nt
Cc1ccc(N2C3=C(C(=O)CC(C)(C)C3)C(c3cnn(C)c3)C3=C2CC(C)(C)CC3=O)cc1	2.4	nt
C#CCNC(=O)NC1CCCN(S(=O)(=O)c2ccc(C)cc2)C1 (configuration not stated)	-2.0	-0.046
O=C(CSc1nnc(Cc2cccs2)n1C1CCCCC1)c1ccccc1	-0.3	nt
CCN(c1ccccc1)S(=O)(=O)c1ccc(Sc2nnc(-c3cccs3)n2CC2CCCO2)nc1 (configuration not stated)	1.6	nt
Cc1cc(C)c(-c2cc(NC(=O)CN3CCCC(C(N)=O)C3)n(-c3ccccc3)n2)cc1C (configuration not stated)	-1.0	nt
O=C1c2ccccc2C(=O)N1CN1CCCCC1	3.0	nt
CC1CC(=O)NN=C1c1ccc2c(c1)nnn2O (configuration not stated)	3.3	-0.63
CNS(=O)(=O)c1ccc(SC)cc1	2.9	-0.56
O=C(O)c1ccc2nccnc2c1	-2.3	0.085
O=C(CSC1=NS(=O)(=O)c2cc(F)ccc2N1)NC1CCCC1	2.8	0.59
O=C(Nc1ccccc1)Nc1ccc2snnc2c1	-0.5	0.87
c1ccc(CN2CCN(Cc3nnc(-c4ccccc4)o3)CC2)cc1	-2.5	0.21
CSc1nnc(C2CCCN(CC(=O)NC3CCCCC3C)C2)n1C (configuration not stated)	2.6	-0.36
CCn1c(CCc2ccccc2)nc2ccccc21	-0.3	0.43
CN=c1scc(-c2ccc3c(c2)OCCO3)n1/N=C/c1ccc(NC(C)=O)cc1	0.7	nt
Nc1nc2c(c(=O)[nH]1)CCC2	0.2	-1.1
Cc1cc(-n2c(C)cc(/C=C/C(=O)N3CCN(c4ncccn4)CC3)c2C)no1	-1.9	nt

(next part)
SMILES	Ab BasE inh	LANA-nucl inh
c1ccc2c(c1)-c1ccccc1C2N1CCOCC1	0.1	nt
NCC(=O)NCc1ccco1	0.0	nt
O=C(COC(=O)c1ccc(S(=O)(=O)N2CCOCC2)cc1)Nc1ncc(Cl)cc1Cl	0.5	nt
O=C(CCNS(=O)(=O)c1ccccc1)N1CCCc2ccccc21	-5.9	nt
CCN(C(=O)c1cccc(F)c1)C1CCS(=O)(=O)C1 (configuration not stated)	0.7	-1.5
COc1ccc(-c2cc(NCc3ccccc3)n3cnnc3n2)cc1	-6.1	-0.042
O=C1c2ccccc2C(=O)N1CCCCN(C(=O)c1ccco1)c1ccc(Cl)cc1	0.6	2.4
CC1S/C(=C(/C#N)C(=O)NCc2ccco2)N(Cc2ccco2)C1=O (configuration not stated)	0.8	nt
CC(C)n1c(=N)c(C#N)cc2c(=O)n3ccccc3nc21	5.5	nt
O=C(CSCc1ccco1)c1ccco1	4.6	nt
Cc1ccc(Nc2nc(CSc3nc4ccccc4s3)cc(=O)[nH]2)cc1	3.4	nt
CCOc1nc(-c2ccccc2)cc(-c2ccccc2)n1	3.4	-0.43
CN(C1CCCCC1)S(=O)(=O)c1ccc2c(c1)OCC(C(=O)N1CCCCC1)O2 (configuration not stated)	2.8	-0.72
COc1ccc(C(N)C(=O)O)cc1 (configuration not stated)	1.3	nt
O=C(NCC1COc2ccccc2O1)C1CCN(S(=O)(=O)c2ccccc2)CC1 (configuration not stated)	3.4	nt
COc1ccc(NC(=O)c2ccco2)cc1Nc1cc(C)nc2nc(-c3cccc(C)c3)nn12	0.5	-0.35
Nc1ccc(-c2n[nH]c(=O)c3ccccc23)cc1N	4.0	-0.38
CCc1nnc(SCc2nc(-c3ccc(OC)c(OC)c3)oc2C)c2cc3oc(C)cc3n12	-2.5	1.3
CNC(=O)C1CC(=O)N(Cc2ccc(F)cc2)C(=Nc2ccc(F)cc2)S1 (configuration not stated)	0.7	0.66
CCOC(=O)N1CCN(C(=O)CN(C)S(=O)(=O)c2ccc3c(c2)C(C)(C)C(=O)N3C)CC1	0.7	1.3
Cc1cc2nnc(C#N)c(C)n2n1	-0.1	-0.45
C=C1CC23CC4C5[C@@]6(C)C[C@H](OC(=O)c7ccccc7)[C@@H](OC(C)=O)[C@@]57C2[C@H](OC(C)=O)[C@@H]1[C@H](O)[C@H]3[C@H]7N4C6	-0.6	-0.18
CCOC(=O)C1CCCCN1S(=O)(=O)c1cc2c(cc1C)NC(=O)CO2 (configuration not stated)	1.0	-1.6
CC(C)NC(=O)CSc1nnc(-c2ccc3c(c2)OCO3)o1	0.8	nt
N#Cc1nc2n(c1C#N)CN(CCc1ccc(Cl)cc1Cl)CN2	-3.4	nt
Cc1ccc2cc(C(=O)O)[nH]c2c1	3.5	0.026
Cc1cc(-c2nc(C34CC5CC(CC(C5)C3)C4)cs2)no1	nt	0.21
O=C(Nc1ccccc1Cl)c1ccc(-n2cnnc2)cc1Cl	2.8	-0.15
C=CCN(CC=C)C(=O)c1c(-c2ccccc2Cl)noc1C	-1.5	-0.56
Cc1ccc2onc(CNC(=O)N3CCN(Cc4ccc5c(c4)OCO5)CC3)c2c1	-1.3	-0.22
Cc1ccc(S(=O)(=O)Nc2cc3c(cc2N2CCOCC2)n(C)c(=O)c(=O)n3C)cc1	12	-1
Cc1ccc(NC(=O)c2ccco2)c(NC(=O)COc2ccc(I)cc2)c1	0.9	-1.5
CCc1cccc(NC(=O)[C@@H]2CCCN2C2=NS(=O)(=O)c3ccccc32)c1	-2.1	nt
O=C(NCC(c1ccc(Cl)cc1)N1CCOCC1)c1ccccc1 (configuration not stated)	0.0	0.72
CCCNc1nc2ccccn2c(=O)c1/C=C1\SC(=S)NC1=O	-14	nt
Cn1ncc(Br)c1-c1cccc(NC(=O)COCC(=O)O)c1	0.3	-1.1

15 successive entries out of the list so far:
SMILES	Ab BasE inh	LANA-nucl inh
CNC(=O)C1CC(=O)N(Cc2ccc(F)cc2)C(=Nc2ccc(F)cc2)S1 (configuration not stated)	0.7	0.66
CCOC(=O)N1CCN(C(=O)CN(C)S(=O)(=O)c2ccc3c(c2)C(C)(C)C(=O)N3C)CC1	0.7	1.3
Cc1cc2nnc(C#N)c(C)n2n1	-0.1	-0.45
C=C1CC23CC4C5[C@@]6(C)C[C@H](OC(=O)c7ccccc7)[C@@H](OC(C)=O)[C@@]57C2[C@H](OC(C)=O)[C@@H]1[C@H](O)[C@H]3[C@H]7N4C6	-0.6	-0.18
CCOC(=O)C1CCCCN1S(=O)(=O)c1cc2c(cc1C)NC(=O)CO2 (configuration not stated)	1.0	-1.6
CC(C)NC(=O)CSc1nnc(-c2ccc3c(c2)OCO3)o1	0.8	nt
N#Cc1nc2n(c1C#N)CN(CCc1ccc(Cl)cc1Cl)CN2	-3.4	nt
Cc1ccc2cc(C(=O)O)[nH]c2c1	3.5	0.026
Cc1cc(-c2nc(C34CC5CC(CC(C5)C3)C4)cs2)no1	nt	0.21
O=C(Nc1ccccc1Cl)c1ccc(-n2cnnc2)cc1Cl	2.8	-0.15
C=CCN(CC=C)C(=O)c1c(-c2ccccc2Cl)noc1C	-1.5	-0.56
Cc1ccc2onc(CNC(=O)N3CCN(Cc4ccc5c(c4)OCO5)CC3)c2c1	-1.3	-0.22
Cc1ccc(S(=O)(=O)Nc2cc3c(cc2N2CCOCC2)n(C)c(=O)c(=O)n3C)cc1	12	-1
Cc1ccc(NC(=O)c2ccco2)c(NC(=O)COc2ccc(I)cc2)c1	0.9	-1.5
CCc1cccc(NC(=O)[C@@H]2CCCN2C2=NS(=O)(=O)c3ccccc32)c1	-2.1	nt

New compounds follow.
SMILES	Ab BasE inh	LANA-nucl inh
CCOC(=O)N1N=C(C)CC1(O)c1ccccc1 (configuration not stated)	0.9	-0.62
O=C(Nc1ccccc1NC(=O)c1cccs1)c1cccs1	-1.1	-0.39
Cc1cc(C)c(S(=O)(=O)NCCc2ccncc2)c(C)c1	0.6	2
CCOC(=O)c1cc(/C(C)=N/NS(=O)(=O)c2ccc(F)c(Cl)c2)on1	2.1	-1.6
OC(CNC12CC3CC(CC(C3)C1)C2)COCc1ccco1 (configuration not stated)	-0.9	nt
CCOC(=O)c1ccc(N2C(=O)c3[nH]nc(-c4ccc(OC)cc4)c3C2c2ccc(OC)cc2)cc1 (configuration not stated)	-1.2	1.2
NC(=O)COC(=O)c1cn(-c2ccccc2)nc1-c1ccccc1	-2.0	nt
CC1=CC(=C(C#N)C#N)C=C(C)N1Cc1ccc(Cl)cc1	-0.7	nt
Cc1nc(COc2ccc(C(C)(C)C)cc2)sc1C(=O)NN	0.3	nt
Clc1ccc(Cn2c(/N=C/c3ccc4c(c3)OCO4)nc3ccccc32)cc1	0.3	nt
CC(=O)N(Cc1cc2cccc(C)c2[nH]c1=O)C(C)(C)C	-0.8	0.96
COc1ccccc1CN(C)Cc1nc(N)nc(Nc2ccccc2C)n1	-1.4	nt
CC1=CC(=O)C(C(=O)/C=C/c2cc3ccccc3nc2N2CCOCC2)C(=O)O1 (configuration not stated)	2.2	nt
CN(C)S(=O)(=O)c1cccc(COC(=O)c2cccnc2Cl)c1	0.2	nt
CC1CCCC(NC(=O)Cn2c3ccccc3c3cn[nH]c(=O)c32)C1C (configuration not stated)	0.9	-1
COc1ccc(-n2cnnc2SCc2cnc(-c3ccccc3)s2)cc1	-0.2	nt
Cc1ccc(C#N)o1	-0.1	nt
O=C(N/N=C/c1ccco1)c1cccc(S(=O)(=O)Nc2cccc(Cl)c2)c1	4.2	nt
O=C(O)C1CCCCC1C(=O)N1CCN(c2ccccn2)CC1 (configuration not stated)	4.7	-1.2
Cc1occc1-c1nnc(SCC2CCCCO2)n1-c1ccccc1 (configuration not stated)	0.1	nt
